Compound activity deposited in PubChem BioAssay by several laboratories.
IL1B cytotox: cytotoxicity in IL-1B stimulated HUVEC, primary screen, cytotoxicity control for IL-1B NFkB translocation project, imaging, Hoechst nuclear count, IL-1B stimulus; cell count reduction, % at 2 µM; actives 0.41% (n = 94,000); HUVEC cell count loss; AID 845, 2007;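 active = cell count reduction more than 3 SD above the screen-wide mean, cut at about 70% in these data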;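 note: normalized per plate to untreated control cells as the no-loss baseline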
HUVEC tox TNFa: cytotoxicity in TNFa-stimulated HUVEC, primary screen, cytotoxicity control for VCAM1 expression modulator project, imaging, Hoechst nuclei count; HUVEC TNFalpha-stimulated, Hoechst cell count; cell count reduction, % at 2 µM; actives 0.17% (n = 93,000);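 active = cell count reduction exceeding the screen mean by over 5 SD, scaled to untreated wells per plate, cut at about 78% in these data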;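 note: cells counted after 24 h of TNF alpha exposure following the 1 h pretreatment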
hDAT+cocaine: changed hDAT dopamine uptake under cocaine IC80, either direction, primary screen, cocaine antagonist project, cell-based, LLC-PK1 hDAT, [14C]-dopamine uptake, MLSMR; Sodium-dependent dopamine transporter (Homo sapiens), Q01959; LLC-PK1 hDAT cells, [14C]-dopamine uptake with cocaine IC80; actives deviate in either direction; B-score at 10 µM; actives 1.3% (n = 110,000);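 active = Z score or B-score, a plate-position-corrected score, falls beyond the plate's 99.7% confidence bounds, in either direction; inactive = both scores lie inside the 99.7% bounds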;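 note: scored against the spread of the other compound wells on the same plate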
Target sequence (Q01959 whole entry, looked up): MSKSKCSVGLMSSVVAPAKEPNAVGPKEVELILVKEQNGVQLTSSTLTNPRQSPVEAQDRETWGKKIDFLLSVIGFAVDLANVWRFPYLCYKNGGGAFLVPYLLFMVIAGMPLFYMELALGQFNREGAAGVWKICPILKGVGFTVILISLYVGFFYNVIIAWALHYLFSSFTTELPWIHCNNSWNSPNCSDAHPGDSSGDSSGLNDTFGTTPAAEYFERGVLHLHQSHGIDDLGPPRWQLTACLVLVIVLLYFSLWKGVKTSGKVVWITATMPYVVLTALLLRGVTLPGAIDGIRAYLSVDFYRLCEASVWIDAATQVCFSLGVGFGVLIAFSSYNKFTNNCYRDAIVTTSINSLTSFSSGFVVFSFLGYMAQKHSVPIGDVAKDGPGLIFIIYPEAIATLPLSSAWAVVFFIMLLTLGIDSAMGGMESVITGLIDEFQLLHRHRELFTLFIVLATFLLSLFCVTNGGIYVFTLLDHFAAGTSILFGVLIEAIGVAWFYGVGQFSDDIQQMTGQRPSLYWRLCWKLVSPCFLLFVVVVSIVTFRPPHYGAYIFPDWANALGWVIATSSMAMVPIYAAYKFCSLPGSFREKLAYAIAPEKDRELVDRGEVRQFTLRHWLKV
Candida biofilm: clotrimazole potentiators killing Candida biofilms, primary screen, with clotrimazole, Alamar Blue; inhibition, % at 6 µM; AID 834, 2007; C. albicans biofilm + clotrimazole; actives 0.14% (n = 85,000);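 active = inhibition above 20%; inactive = inhibition below 20%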;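 note: preformed 24 hr biofilms exposed to compound for 48 hr; 0% = biofilm without compound and 100% = blank killed by clotrimazole plus chlorhexidine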
VCAM1 TNFa inh: inhibitors of TNFa-induced VCAM1 expression, primary screen, imaging, HUVEC, TNFa stimulus, immunofluorescence; actives 0.48% (n = 95,000); inhibition, % at 2 µM; HUVEC TNFa-induced VCAM-1 immunofluorescence, high-content imaging;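 active = inhibition above the batch mean plus 3 SD, with images confirmed as a hit by eye, cut at about 37% in these data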;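 note: 0% = TNF-stimulated DMSO wells and 100% = unstimulated control wells; not every result past the cut was called active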
* marks the source's active call; other numbers are inactive results; · = no result given. The list is partial; rates above refer to the full screens.

Start of the data: the first seven records (preview)
SMILES	IL1B cytotox	HUVEC tox TNFa	hDAT+cocaine	Candida biofilm	VCAM1 TNFa inh
O=c1c(C=Nc2ccc(Cl)cc2)c[nH]n1-c1cccc(Cl)n1	3.1	-10.7	0.652	·	-1.6
O=C(N/N=C/c1ccco1)c1ccncc1	-42.4	-3.4	-0.0424	·	-10.4
Fc1cccc(CN2CCCCCCC2)c1	·	·	0.535	2.3	·
CC(C)(C)c1ccc(C(=O)N2CCC(C(=O)NCCC3=CCCCC3)CC2)cc1	-29.0	-1.3	1.5	·	19.1
CCOC(=O)CN1NC2(CCC(C(C)(C)C)CC2)NC1=S (stereo not given)	-11.2	-2.2	-1.18	3.9	26.6
CC12CC(NC(=O)N1c1cccc(C(=O)NCc3ccccc3)c1)c1ccccc1O2 (stereo not given)	3.2	9.6	·	·	23.1
COc1ccccc1OCc1ccc(C(=O)N(C)C)o1	-1.0	-3.7	0.0598	6.8	5.5

The whole of this part, previewed entries included:
SMILES	IL1B cytotox	HUVEC tox TNFa	hDAT+cocaine	Candida biofilm	VCAM1 TNFa inh
O=c1c(C=Nc2ccc(Cl)cc2)c[nH]n1-c1cccc(Cl)n1	3.1	-10.7	0.652	·	-1.6
O=C(N/N=C/c1ccco1)c1ccncc1	-42.4	-3.4	-0.0424	·	-10.4
Fc1cccc(CN2CCCCCCC2)c1	·	·	0.535	2.3	·
CC(C)(C)c1ccc(C(=O)N2CCC(C(=O)NCCC3=CCCCC3)CC2)cc1	-29.0	-1.3	1.5	·	19.1
CCOC(=O)CN1NC2(CCC(C(C)(C)C)CC2)NC1=S (stereo not given)	-11.2	-2.2	-1.18	3.9	26.6
CC12CC(NC(=O)N1c1cccc(C(=O)NCc3ccccc3)c1)c1ccccc1O2 (stereo not given)	3.2	9.6	·	·	23.1
COc1ccccc1OCc1ccc(C(=O)N(C)C)o1	-1.0	-3.7	0.0598	6.8	5.5
Cc1ccc(C)c(N(CC(=O)Nc2cc(Cl)ccc2Oc2ccccc2)S(C)(=O)=O)c1	-46.5	-13.6	1.02	·	2.8
N#CC1=C(N)SC(N)=C(C#N)C1c1cccc(O)c1	-0.8	13.0	0.24	0.6	7.3
Clc1ccc(-c2nnc(-c3ccco3)o2)cc1	-101.9	-11.7	-0.00464	9.2	-9.5
Cc1cc(NC(=O)c2cccc(F)c2)no1	-10.1	-40.6	·	8.2	23.1
CC(NC(=O)c1cc2ccccc2o1)C(=O)O (stereo not given)	19.4	-3.3	0.739	8.0	4.8
Cn1nc(C(F)(F)F)c(C(=O)Nc2cccc(Cl)c2)c1Cl	·	·	-0.631	·	·
CCC(C)C(=O)Nc1nc(-c2ccc3c(c2)NC(=O)CO3)cs1 (stereo not given)	6.8	-6.3	-0.0609	5.1	11.9
COc1cccc(-c2cc(C(F)(F)F)nc(N3CCCCC3)n2)c1	-30.3	-3.6	0.383	3.3	-5.9
O=C(NCc1ccccc1)c1onc(CSc2ccc(F)cc2)c1C(=O)NCCCN1CCOCC1	-9.6	-8.7	2.03	·	-1.4
Cc1nonc1NC(=O)Nc1cccnc1	-45.3	11.0	-0.094	6.8	-9.3
CCSc1cc(N2CCCC2)nc(-c2ccc(F)cc2)n1	-18.4	0.6	0.29	·	-3.9
Cc1ccc(C(=O)C(OC(=O)CCC(=O)Nc2cccc(C)c2)c2ccccc2)cc1 (stereo not given)	-8.1	-18.3	0.00182	·	1.4
CCOC(=O)CNC(=O)CSc1nnc(-c2ccncc2)n1-c1ccc(Cl)cc1	-8.5	1.0	0.0333	9.0	-5.1

Next part; the last four above are carried over.
SMILES	IL1B cytotox	HUVEC tox TNFa	hDAT+cocaine	Candida biofilm	VCAM1 TNFa inh
Cc1nonc1NC(=O)Nc1cccnc1	-45.3	11.0	-0.094	6.8	-9.3
CCSc1cc(N2CCCC2)nc(-c2ccc(F)cc2)n1	-18.4	0.6	0.29	·	-3.9
Cc1ccc(C(=O)C(OC(=O)CCC(=O)Nc2cccc(C)c2)c2ccccc2)cc1 (stereo not given)	-8.1	-18.3	0.00182	·	1.4
CCOC(=O)CNC(=O)CSc1nnc(-c2ccncc2)n1-c1ccc(Cl)cc1	-8.5	1.0	0.0333	9.0	-5.1
CCc1cc(C(c2ccc(F)cc2)N2CCOCC2)c(NC(=O)c2ccccc2)s1 (stereo not given)	·	3.7	0.0889	·	20.4
CCCCNC(=O)COC(=O)c1cc(F)c(F)cc1Cl	3.0	-7.6	0.0089	5.0	-4.2
Cc1ccnc(NS(=O)(=O)c2ccc(NC(=O)C3CCCNC3=O)cc2)n1 (stereo not given)	11.5	-7.7	-0.889	·	27.5
CC1CC(C)CN(Cc2nc(N)nc(Nc3ccc4ccccc4c3)n2)C1 (stereo not given)	12.3	-18.2	1.76	0.5	21.1
CCOc1c(Cl)cc(Cl)cc1CNCCNCCO	-13.9	4.9	0.665	·	-2.1
O=C(Nc1cccc(C(F)(F)F)c1)C1CCCN(S(=O)(=O)c2cnc[nH]2)C1 (stereo not given)	27.5	-8.2	-0.412	-0.5	16.3
CCN(C(=O)Cc1ccccc1OC)c1nnc(-c2ccncc2)s1	-25.4	15.7	-0.0905	·	1.6
CN1CC(c2ccccc2Cl)C2(COc3ccccc3C2=O)C12C(=O)Nc1ccccc12 (stereo not given)	-3.9	-22.2	0.258	·	-6.3
Cc1ccc(CNc2ccc(O)cc2)cc1	26.8	-22.2	0.864	-0.2	-6.0
CC1=C(C(=O)NCCN2CCN(C)CC2)C2(CCC(C)CC2)OC1=O (stereo not given)	68.1	0.8	-0.596	6.0	2.8
COc1ccc(/C=C/C(=O)NCC(=O)N/N=C/c2cc(Br)ccc2OC)cc1	-0.7	-21.7	-0.0159	-5.3	11.1
O=c1[nH][nH]c(C(F)(F)F)c1C=Nc1ccc(Cl)cc1	36.1	24.5	-0.988	·	-20.1
CC(C)(C)NC(=O)C1Cc2ccccc2CN1C(=O)Nc1ccccc1Cl (stereo not given)	-18.0	-14.4	-0.0503	·	8.8
O=C(NCc1cccnc1)C1CC2c3ccccc3C1c1ccccc12 (stereo not given)	-12.0	-13.0	0.0186	·	10.0
COc1ccc2c(c1[N+](=O)[O-])CCC/C2=N/OC(=O)c1ccccc1SC	-2.6	-3.5	-0.0223	4.6	1.6
NC(=O)c1ccc(NC(=O)C2CCCO2)cc1 (stereo not given)	2.2	8.2	-0.0813	4.7	-4.8
O=S(=O)(c1ccccc1)n1ccc2cccnc21	4.8	-3.9	-0.0755	·	-13.6
Cc1ccc(C(=O)c2cc([N+](=O)[O-])ccc2N2CCOCC2)c(C)c1	87.8*	53.9	-1.98	·	78.7*
Cc1ccccc1C(=O)NC(NCc1ccco1)C(Cl)(Cl)Cl (stereo not given)	-69.1	-7.8	1.45	·	2.1
CCCn1nc2cc(C(=O)NCc3ccc(OC)cc3)ccc2c1OCC	-12.5	5.1	2.31*	·	14.7
COC(=O)[C@H](Cc1ccccc1)NC(=O)N1CCN(Cc2ccccc2)CC1	23.4	11.1	-0.202	-2.7	6.2
Cn1c(SCC(=O)NCc2ccc3c(c2)OCO3)nnc1-c1c[nH]c2ccccc12	-8.6	-7.0	1.64	3.4	-6.4
CCOC(=O)c1sc(-c2ccc(Br)cc2)cc1N	-11.4	-20.0	0.0959	7.2	4.1
O=C(O)CSc1ccccc1C(=O)O	-15.8	-21.3	0.649	1.3	-16.2
CC(=O)N1CCN(c2nc3cc4c(cc3nc2NS(=O)(=O)c2ccccc2)OCCO4)CC1	-2.3	53.2	0.694	8.7	17.2
Cc1cc(C)n(-c2nc3c(c(=O)[nH]c(=O)n3C)n2C(C)C)n1	-58.8	-33.3	-0.133	10.1	-15.3
Cc1cc(OCn2ccc(C(=O)O)n2)ccc1Cl	-42.7	-32.7	0.304	0.7	-47.0
COc1ccc(C)cc1NC1=C(Cl)C(=O)N(C2CCCCC2)C1=O	-14.1	-43.4	-0.634	·	-8.5
Cc1ccc2nc(NC(=S)NC(=O)c3cccs3)sc2c1	0.4	-5.1	-0.732	·	18.0
On1c(-c2ccccc2)nc2ccc(Cl)cc21	-78.8	-17.7	0.56	·	5.1
O=C(c1ccc(Cl)c(S(=O)(=O)NCc2ccccc2)c1)N1CCN(c2ccccn2)CC1	-6.3	-9.1	0.317	16.4	-14.5
COc1ccc(CN2CCN(C(=O)c3cccs3)CC2)cc1Br	-11.2	18.3	0.00153	3.4	-11.5
Cc1cc(CSc2ccccc2)ccc1NC(=O)c1cccc([N+](=O)[O-])c1	14.8	-25.6	-1.06	·	16.8
COc1ccc(OC)c(C2CC(=O)C3=C(C2)NC(=O)CC3c2ccc(O)c(OC)c2)c1 (stereo not given)	-4.4	-13.2	0.145	-1.0	1.5
COc1ccccc1OC(C)c1nnc(SCC(=O)Nc2c(C)n(C)n(-c3ccccc3)c2=O)n1-c1ccccc1 (stereo not given)	-9.5	-1.7	0.248	·	15.0
CCC(=O)Nc1ccc(C(=O)Nc2ccc3c(c2)OCO3)cc1	-7.1	-25.6	-0.447	3.0	8.0
COc1cc(CNCc2cccs2)ccc1OCC(N)=O	-4.3	-14.7	0.886	·	-15.7
CC(=O)Nc1ccccc1C(=O)C(=O)Nc1ccc(F)cc1	-5.3	-8.3	-0.395	·	1.5
O=C(CN1C(=O)C2C3C=CC(C3)C2C1=O)Nc1ccc(C(=O)O)cc1 (stereo not given)	-11.7	-8.6	-0.524	·	13.0
O=C(O)C1C2C=CC(C2)C1C(=O)NCCC1=CCCCC1 (stereo not given)	-13.7	-18.5	-0.301	·	14.8
NC(=O)CN1CCN(c2nc(-c3ccc(F)cc3)cs2)CC1	-14.4	-5.5	-0.00486	6.7	6.0
COc1ccc(-n2c(C)n[nH]c2=O)cc1	-29.7	-15.9	-0.000987	·	6.5
O=C(Nc1ccsc1C(=O)NC1CCCCC1)c1ccc(F)cc1	-11.6	-2.6	-0.532	·	-0.6
O=C(COc1ccc(OCc2ccccc2)cc1)NC1CCOC1=O (stereo not given)	-0.6	9.3	0.0976	-1.8	-8.7
CN(C(=O)CSc1ncccc1C(=O)O)c1ccccc1	-71.4	-13.5	-0.333	1.9	0.8
CCNc1nc(NCC)nc(N(C)N)n1	-18.3	-15.7	-0.644	·	-3.8
CCOC(=O)CCCNC(=O)c1cncc(Br)c1	-15.0	-4.3	-0.514	·	2.5
FC(F)(F)c1cccc(Oc2nc(-c3ccccc3)nnc2C(F)(F)F)c1	12.3	10.5	-0.564	·	11.4
Nc1nc(N2CCOCC2)cc(=O)[nH]1	-20.0	-15.2	·	-0.8	0.0
Cc1cc(NC(=S)Nc2ccccc2)ccc1Br	-5.8	0.0	0.16	·	3.2
New compounds follow.
SMILES	IL1B cytotox	HUVEC tox TNFa	hDAT+cocaine	Candida biofilm	VCAM1 TNFa inh
COc1ccc(NC(=O)c2cn(-c3ccccc3)nc2-c2cc3ccccc3o2)cc1	-44.5	-37.7	0.696	·	-26.6
COc1ccc(/C(O)=C2/C(=O)C(=O)N(CC3CCCO3)C2c2cccc(O)c2)cc1 (stereo not given)	-58.8	-6.1	·	4.4	6.7
COc1ccc(OC)c(/C=N/NC(=O)c2csc3ccccc23)c1	-115.7	-23.8	-0.0404	·	4.8
O=C(NCc1ccccc1C(F)(F)F)C1CC(c2ccccc2[N+](=O)[O-])=NO1 (stereo not given)	2.6	-16.7	0.0118	·	12.6
COC(=O)c1ccc(OCC2c3cc(OC)c(OC)cc3CCN2C(=O)C2CC2)cc1 (stereo not given)	-56.9	-14.7	2.85	3.4	-28.6
O=C(O)c1cc(S(=O)(=O)NCC2CCCO2)ccc1Cl (stereo not given)	-0.6	-27.3	0.828	1.7	-15.4
CCC(C)C1NC(=S)N(Cc2ccccc2)C1=O (stereo not given)	-1.6	-22.5	0.165	·	-6.4
CCOC(=O)C1=C(C)N(CC(C)C)C(=O)/C1=C\c1ccc(OCC(=O)Nc2ccccc2)cc1	·	1.0	1.06	·	15.3
CN=C(Nc1cc(C)nn1-c1ccccc1)c1ccccc1F	-14.4	-9.7	0.576	·	1.2
Cc1c(C(=O)NC(C)CCc2ccccc2)cccc1[N+](=O)[O-] (stereo not given)	-95.5	-50.5	-1.21	·	-7.8
Cc1ccc(Cn2nc(-c3ccccc3)nc2-c2ccccc2)cc1	21.9	1.4	·	·	-3.9
